Screening data as filed in PubChem.
MbtI inh: MbtI salicylate synthase inhibitors, primary screen, biochemical, fluorescence intensity; purified MbtI enzyme, fluorescence intensity read-out; hit rate 0.89% among 100,000; inhibition, %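 (about 17 µg/mL by stock and volumes)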;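 active = above 50% in both replicates, above 80% if mildly self-fluorescent; inactive = the rest, strongly fluorescent compounds included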;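 also: 0% = mean of negative and 100% = mean of positive controls; one replicate is shown; some compounds called inactive have numbers as strong as hits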
Polio RdRp inh: poliovirus RdRp elongation inhibitors, primary screen, biochemical, fluorescence polarization, total intensity | Genome polyprotein (Poliovirus type 1 (strain Mahoney)), P03300 | poliovirus polymerase elongation; stronger effect = lower value | % elongation, % (compound at 16.7 µg/mL) | hit rate 0.66% among 150,000 | AID 588519, 2011; in the data active = % elongation below about 90%; also: some results filed as inactive read as strong as hits
Target sequence (P03300 1749-2209 limits assumed): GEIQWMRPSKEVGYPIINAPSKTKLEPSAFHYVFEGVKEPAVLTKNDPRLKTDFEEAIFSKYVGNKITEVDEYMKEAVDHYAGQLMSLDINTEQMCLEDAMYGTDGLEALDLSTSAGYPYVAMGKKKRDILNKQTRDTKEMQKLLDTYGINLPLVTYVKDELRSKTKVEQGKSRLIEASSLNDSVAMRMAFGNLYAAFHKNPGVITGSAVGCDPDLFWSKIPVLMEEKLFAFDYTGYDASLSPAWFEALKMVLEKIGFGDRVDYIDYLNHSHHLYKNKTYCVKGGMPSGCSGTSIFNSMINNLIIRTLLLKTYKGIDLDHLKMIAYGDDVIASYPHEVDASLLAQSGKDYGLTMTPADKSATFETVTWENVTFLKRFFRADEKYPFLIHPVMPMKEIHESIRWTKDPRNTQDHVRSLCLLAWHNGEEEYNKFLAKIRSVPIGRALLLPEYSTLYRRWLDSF
MenB inh: M. tuberculosis MenB inhibitors, primary screen, biochemical, absorbance; MenB enzyme assay, absorbance read-out; some hits fall short of the stated cut; inhibition, %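 (about 12 µg/mL by stock and volumes)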; hit rate 0.43% among 100,000;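 active = mean of two replicates above 30%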;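 also: 0% = no compound and 100% = wells with inactive enzyme; the first replicate is given; strong numbers were not always called active; inactives centre near -10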
Polio RdRp inh intensity: also measured in Polio RdRp inh; calls as there; % elongation; measured here: total intensity read-out; formula for this scale not given here;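 total fluorescence in place of polarization; lower means less elongation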
* marks the source's active call; other numbers are inactive results; i = inactive; . = no result given.

# | Structure | MbtI inh | Polio RdRp inh
1 | COc1ccc(C2NC(CC(C)C)(C(=O)O)C3C(=O)N(c4ccccc4OC)C(=O)C23)c(OC)c1 (configuration not stated) | -16 | 102
2 | c1ccc(C2CCC(=NN3CCOCC3)CC2)cc1 (configuration not stated) | -9 | 102
3 | COC(=O)C(N)CSC1CCCCO1 (configuration not stated) | . | 96
4 | CCCn1c(CCC(=O)N(C)c2ccccc2)nc2cc(S(=O)(=O)N3CCCC3)ccc21 | -13 | 104
5 | O=C(O)CCNc1ccc2c(c1)OCCO2 | 0 | 102
6 | CN(C)C(=O)Oc1cccc(N)c1 | -11 | 99
7 | CCOc1cc2[nH]c(=O)n(CCC(=O)NCc3ccco3)c(=O)c2cc1OCC | 20 | 101
8 | COc1ccc(-c2ocnc2C(=O)N2CCN(C(=O)C(c3ccccc3)c3ccccc3)CC2)cc1 | 47 | 104
9 | O=C1CC(SCc2nc3ccccc3[nH]2)C(=O)N1c1ccc(Cl)cc1 (configuration not stated) | . | 102
10 | c1cc2c(cc1-c1nn3cnnc3s1)OCO2 | i | 102
11 | CC(NC(=O)c1ccccc1)C(=O)O (configuration not stated) | -5 | 101
12 | Oc1ccccc1C=Nc1ccc2oc(-c3cccc(I)c3)nc2c1 | 11 | 102

# | Polio RdRp inh intensity | MenB inh
1 | 105 | -21
2 | 108 | -2
3 | 102 | -12
4 | 112 | -16
5 | 100 | -21
6 | 112 | 7
7 | 102 | -3
8 | 104 | -10
9 | 111 | -7
10 | 102 | 5
11 | 106 | .
12 | 99 | -20

Other records:
# | Structure | MbtI inh | Polio RdRp inh
13 | Cc1ccc(C)c(CN2CCN(c3ncc(C(F)(F)F)cc3Cl)CC2)c1 | 0 | 98
14 | CC(C)(O)C1Cc2cc(/C=C/C(=O)O)c(O)cc2O1 (configuration not stated) | -13 | 102
15 | CC(C)(C)C(=O)CSc1cccc2cccnc12 | -11 | 105
16 | NC(=O)C[C@H](NC(=O)c1ccccc1Cl)C(=O)O | -8 | 101
17 | OC(COc1ccc(Cl)cc1Cl)CN1CCCCC1 (configuration not stated) | 3 | 99
18 | O=C(CSC1CCCC1)c1cccc(C(F)(F)F)c1 | -2 | 103
19 | CCN1CCN(C(=O)NC(C(=O)N[C@@H]2C(=O)N3[C@@H]2SC(C)(C)[C@@H]3C(=O)O)c2ccccc2)C(=O)C1=O (some centres not stated) | -28 | 98
20 | CCn1c(=O)c2ccccc2n(Cc2cccc(Cl)c2)c1=O | -2 | 105
21 | O=C(Nc1ccccc1Cl)c1cc2c(s1)-c1ccccc1S(=O)(=O)C2 | 5 | 103
22 | CC(C)CCNS(=O)(=O)c1cc(Br)cnc1N | 9 | 102
23 | CC(=O)Nc1c(Cl)c(Cl)c(NC(C)=O)c2n[nH]nc12 | -5 | 96
24 | CCOC(=O)c1cnn(C)c1NS(C)(=O)=O | -3 | 102

# | Polio RdRp inh intensity | MenB inh
13 | 95 | -21
14 | 100 | -21
15 | 107 | .
16 | 93 | -17
17 | 102 | 6
18 | 105 | .
19 | 102 | -7
20 | 100 | -23
21 | 100 | 11
22 | 105 | 11
23 | 103 | 18
24 | 99 | 7

Given as labelled records: entries from further up
[15] CC(C)(C)C(=O)CSc1cccc2cccnc12
  MbtI inh: -11 | Polio RdRp inh: 105 | Polio RdRp inh intensity: 107 | MenB inh: .
[20] CCn1c(=O)c2ccccc2n(Cc2cccc(Cl)c2)c1=O
  MbtI inh: -2 | Polio RdRp inh: 105 | Polio RdRp inh intensity: 100 | MenB inh: -23
[16] NC(=O)C[C@H](NC(=O)c1ccccc1Cl)C(=O)O
  MbtI inh: -8 | Polio RdRp inh: 101 | Polio RdRp inh intensity: 93 | MenB inh: -17
[19] CCN1CCN(C(=O)NC(C(=O)N[C@@H]2C(=O)N3[C@@H]2SC(C)(C)[C@@H]3C(=O)O)c2ccccc2)C(=O)C1=O (some centres not stated)
  MbtI inh: -28 | Polio RdRp inh: 98 | Polio RdRp inh intensity: 102 | MenB inh: -7

Carrying on.
# | Structure | MbtI inh | Polio RdRp inh
25 | O=S(=O)(NCc1ccc2c(c1)OCO2)c1ccc(S(=O)(=O)NC2CCCCC2)cc1 | -8 | 104
26 | O=C(OCc1ccccc1)N1CCOCCN(C(=O)OCc2ccccc2)CCOCC1 | -24 | 100
27 | CCOC(=O)c1c(C)oc2c1c(C=NC1CC(C)(C)NC(C)(C)C1)c(O)c1ccccc12 | 8 | 102
28 | Nc1nnc(CC(=O)N2CCCC2)s1 | 5 | 103
29 | CC(NC(=O)COc1ccccc1)C(=O)N1CCC(=O)CC1 (configuration not stated) | -16 | 106
30 | CC(Sc1nnc(-c2ccc(Cl)cc2)n1Cc1ccco1)C(=O)NCCC1=CCCCC1 (configuration not stated) | -36 | 102
31 | Cc1ccc2nc(CSc3nc4ccccc4n3C)cc(=O)n2c1 | 25 | 102
32 | Cc1ccsc1C(=O)Nc1cc(C(C)(C)C)nn1-c1ccccc1 | 6 | 103
33 | Cc1ccc(C)c(NC(=O)COC(=O)c2ccc[n+]([O-])c2)c1 | -5 | 99
34 | Cc1ccc2nc(-c3ccc(NC(=O)C(C)C)cc3)[nH]c2c1 | i | 99
35 | NC(=O)N/C(CSc1ccc(Cl)cc1)=N\O | 2 | 108
36 | Cc1ccccc1C(=O)NCC1COc2ccccc2O1 (configuration not stated) | -5 | 103

# | Polio RdRp inh intensity | MenB inh
25 | 102 | -57
26 | 100 | -20
27 | 104 | -23
28 | 99 | -58
29 | 109 | -10
30 | 97 | 13
31 | 103 | 17
32 | 105 | -10
33 | 97 | .
34 | 100 | 3
35 | 114 | -1
36 | 103 | -30

(listing goes on)
# | Structure | MbtI inh | Polio RdRp inh
37 | NNC(=O)C1CCN(S(=O)(=O)c2ccccc2N)CC1 | -9 | 100
38 | O=C(c1cccc(S(=O)(=O)Nc2cc(C(F)(F)F)ccc2Cl)c1)N1CCN(c2ncccn2)CC1 | -9 | 99
39 | CC(C)CC(NC(=O)CC12CC3CC(CC(C3)C1)C2)C(=O)O (configuration not stated) | -1 | 99
40 | CNC(=O)NC(=O)C(C)N1c2ccccc2NC(=O)C1CC(=O)Nc1ccc(C)cc1C (configuration not stated) | -8 | 109
41 | CC1(NC(=O)CN2CCCCC2c2nc3ccccc3s2)CCS(=O)(=O)C1 (configuration not stated) | 0 | 101
42 | CCc1ccc(NC(=O)/C=C/c2ccco2)cc1 | 15 | 98
43 | Cc1c(C(=O)Nc2ccc(S(N)(=O)=O)cc2)oc2ccccc12 | 28 | 102
44 | Cn1c(=O)n(CCOc2ccccc2)c2ccccc21 | -4 | 102
45 | Cc1ccc2[nH]c(=O)c(C3=NN(C(=O)c4ccco4)C(c4ccco4)C3)c(-c3ccccc3)c2c1 (configuration not stated) | 87 | 102
46 | CC1CCC(C)N1c1cc(C(F)(F)F)cc(C(F)(F)F)c1 (configuration not stated) | 0 | 101
47 | CCOC(=O)c1c(C)oc2c1c(O)c(N=O)c1ccccc12 | -14 | 96
48 | CCCOc1ccc(/C(C)=N\NC(=O)c2nnn(-c3nonc3N)c2CSc2ccccc2)cc1OC | 1 | 101

# | Polio RdRp inh intensity | MenB inh
37 | 104 | 6
38 | 100 | -1
39 | 101 | 12
40 | 109 | 9
41 | 103 | -42
42 | 103 | 6
43 | 101 | -7
44 | 106 | -2
45 | 96 | -80
46 | 105 | 1
47 | 94 | 10
48 | 103 | 3

(next part)
# | Structure | MbtI inh | Polio RdRp inh
49 | O=C(NC1CC1)c1ccc(CN(c2ccccc2)S(=O)(=O)c2ccccc2)cc1 | . | 101
50 | Cc1cc(C)n(CC(=O)N/N=C/c2sc(N3CCCCC3)nc2-c2cccs2)n1 | -3 | 113
51 | CCCCNC(=S)Nc1ccc(C)cc1 | 2 | 99
52 | COC(=O)CSc1nnc(CNC(=O)c2ccccc2F)n1Cc1ccccc1 | 3 | 102

# | Polio RdRp inh intensity | MenB inh
49 | 103 | -22
50 | 114 | -88
51 | 106 | -1
52 | 103 | -8

Complete entries, looked up by structure.
c1ccc(C2CCC(=NN3CCOCC3)CC2)cc1 (configuration not stated) is entered as MbtI inh = -9; Polio RdRp inh = 102; Polio RdRp inh intensity = 108; MenB inh = -2
CC(C)(C)C(=O)CSc1cccc2cccnc12 is entered as MbtI inh = -11; Polio RdRp inh = 105; Polio RdRp inh intensity = 107; MenB inh = .
